fixLJ activator = activators of Burkholderia fixLJ two-component system; B. multivorans fixK-promoter GFP reporter, 18 h; stronger effect = higher value; z-score (concentration not given with the values); 29,000 compounds, 0.3% hits;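 active = replicate mean overnight rise in green fluorescent reporter signal, 3 or more SD over negative controls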;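 also: score is relative to vehicle wells of the plate; 300 nL library stock went into each well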
An asterisk follows results filed as active. A portion of the library. The share of hits here may be higher or lower than overall.

SMILES	fixLJ activator
CCOc1ccc(NC(=O)Cn2cc(S(=O)(=O)c3ccc(C)cc3)c(=O)c3cc(F)ccc32)cc1	-0.55
Cc1ccc(C)c(N2CCN(C(=O)c3ccc4c(Cl)c5c(nc4c3)CCCC5)CC2)c1	0.3
CCC(=O)Nc1cccc(C(=O)NCc2[nH]cc(C)c(=O)c2C)c1	-2.2
C[C@]12CCC(=O)C=C1CCC1C2[C@@H](O)C[C@@]2(C)C1CC[C@]2(O)C(=O)COC(=O)CCC(=O)O (stereo partly drawn)	0.23
COc1ccccc1C(=O)N(Cc1ccco1)Cc1ccccc1F	-1.2
Cc1ccc(-c2ccnc(N3CCCC(c4ncc[nH]4)C3)n2)c(C)n1 (stereo not drawn)	-1.1
CCc1ccccc1NC(=O)Cn1nnc(C(=O)OC)c1C(=O)OC	-1.1
CCc1cccc(NC(=O)CCc2nc3cccnc3n2Cc2ccc(OC)cc2)c1	0.63
O=c1oc2ccccc2n1CCCOc1ccccc1Cl	-0.12
CCSc1ncc(Cl)c(C(=O)Nc2nc3ccc(Cl)cc3s2)n1	0.24
CCOC(=O)C1CCN(C(=O)Cn2ncc3c4ccccc4n(C)c3c2=O)CC1	-1
Cc1ccc(C)c(NC(=O)CCn2cnnn2)c1	0.27
COc1cccc(-c2nnc(-c3cc4cc(Cl)ccc4oc3=O)o2)c1	-0.27
COc1ccc(-c2noc(CSc3nnc(-c4ccncc4)n3-c3ccc(OC)cc3)n2)cc1	-1.1
Cc1ccc2nc(Cl)c3cc(C(=O)N(C)C4CCCCC4)sc3c2c1	-2.5
Cc1ccc(Cl)cc1N1CCN(Cc2nnc(-c3ccc4c(c3)OCO4)o2)CC1	-0.14
O=C(NCc1ccco1)c1c[nH]c2ccc(S(=O)(=O)Nc3ccc(F)cc3F)cc2c1=O	-0.3
CC(CN1CCc2ccccc2C1)NC(=O)Cc1cc2c(cc1Cl)OCCO2 (stereo not drawn)	-0.73
Cc1cccc2nc(C(=O)NC3CCC(NC(=O)Cc4ccc(F)cc4)C3)cn12 (stereo not drawn)	0.15
CCOc1ccccc1NC(=O)CSC1=Nc2ccccc2C2=NC(CC(=O)NC3CCCCC3)C(=O)N12 (stereo not drawn)	-0.5
O=C(NC(c1ccc2c(c1)CCO2)C1CC(O)C1)c1cncnc1 (stereo not drawn)	-0.23
CC1CCN(c2nc3c(-c4cccc(Br)c4)nnn3c3ccccc23)CC1	-1.9
Cc1ccc2c(c1)cc1c(=O)n(Cc3cccc(Cl)c3)nc(C)n12	-1.1
CCOC(=O)c1sc2nc(C)n(CC(=O)Nc3cccc(Cl)c3)c(=O)c2c1C	-0.22
Cc1cccc(C(=O)N2CC(O)C(CS(=O)(=O)N(C)C)C2)c1C (stereo not drawn)	-0.62
CCn1c(CN(C)Cc2cc(C)cc(C)n2)nnc1C1CC(N)C1 (stereo not drawn)	-1.2
Cc1ccc(N(Cc2cc3ccccc3[nH]c2=O)C(=O)c2cccc(Cl)c2)cc1	-1.8
Cc1cc(C(=O)Nc2cc(Cl)ccc2N2CCCC(C)C2)nn1C (stereo not drawn)	0.35
CCCCC12CN3CC(C)(CN(C1)C3c1ccc(OCc3ccccc3)cc1)C2=O (stereo not drawn)	-0.5
CCOc1ccccc1NC(=O)c1nn(-c2ccc(OC)cc2)c(=O)c2c1c1ccccc1n2C	-0.16
COc1cc(C2CC(=O)N(c3ccccc3)C3=C2C(=O)OC3)cc(OC)c1OC (stereo not drawn)	-0.55
COc1ccc(C(=O)Nc2cccc(OCc3cc(=O)n4c5c(sc4n3)CCCC5)c2)cc1	0.05
COc1ccc(N2CC(C(=O)Nc3ccc(NC(C)=O)cc3)CC2=O)cc1 (stereo not drawn)	-0.59
NC1CC(c2cc(N3CCC(CCN4CCCC4=O)CC3)ncn2)C1 (stereo not drawn)	-2.3
COc1cc(NC(=O)CCc2c(C)nc3c4c(C)cc(C)nc4nn3c2C)cc(OC)c1	-1.3
COc1cc(NS(=O)(=O)c2ccc(NC(=O)C(C)Oc3ccc(Cl)cc3Cl)cc2)nc(OC)n1 (stereo not drawn)	-1.1
O=C(C1CCCN(S(=O)(=O)c2cccs2)C1)N1CCN(c2cccc(Cl)c2)CC1 (stereo not drawn)	-0.85
Cc1ccc(Oc2nc3c(c(=O)n(Cc4ccccc4Cl)c(=O)n3C)n2C)cc1C	-1.6
CCOc1ccc(S(=O)(=O)c2cn(CC)c3ccc(F)cc3c2=O)cc1	-1.8
CCOC(=O)CN1C(=O)C(O)(CC(=O)c2cc(OC)ccc2OC)c2ccccc21 (stereo not drawn)	-0.35

Already shown: an excerpt of the list.
SMILES	fixLJ activator
CCn1c(CN(C)Cc2cc(C)cc(C)n2)nnc1C1CC(N)C1 (stereo not drawn)	-1.2
Cc1ccc(N(Cc2cc3ccccc3[nH]c2=O)C(=O)c2cccc(Cl)c2)cc1	-1.8
Cc1cc(C(=O)Nc2cc(Cl)ccc2N2CCCC(C)C2)nn1C (stereo not drawn)	0.35
CCCCC12CN3CC(C)(CN(C1)C3c1ccc(OCc3ccccc3)cc1)C2=O (stereo not drawn)	-0.5
CCOc1ccccc1NC(=O)c1nn(-c2ccc(OC)cc2)c(=O)c2c1c1ccccc1n2C	-0.16
COc1cc(C2CC(=O)N(c3ccccc3)C3=C2C(=O)OC3)cc(OC)c1OC (stereo not drawn)	-0.55
COc1ccc(C(=O)Nc2cccc(OCc3cc(=O)n4c5c(sc4n3)CCCC5)c2)cc1	0.05
COc1ccc(N2CC(C(=O)Nc3ccc(NC(C)=O)cc3)CC2=O)cc1 (stereo not drawn)	-0.59
NC1CC(c2cc(N3CCC(CCN4CCCC4=O)CC3)ncn2)C1 (stereo not drawn)	-2.3
COc1cc(NC(=O)CCc2c(C)nc3c4c(C)cc(C)nc4nn3c2C)cc(OC)c1	-1.3
COc1cc(NS(=O)(=O)c2ccc(NC(=O)C(C)Oc3ccc(Cl)cc3Cl)cc2)nc(OC)n1 (stereo not drawn)	-1.1
O=C(C1CCCN(S(=O)(=O)c2cccs2)C1)N1CCN(c2cccc(Cl)c2)CC1 (stereo not drawn)	-0.85
Cc1ccc(Oc2nc3c(c(=O)n(Cc4ccccc4Cl)c(=O)n3C)n2C)cc1C	-1.6

More records follow:
SMILES	fixLJ activator
COc1cc(NC(=O)CCc2c(C)nc3c(-c4ccc(F)cc4)c(C)nn3c2C)cc(OC)c1OC	-0.24
Cc1ccc(-c2nnc(Nc3cccc(Br)c3)c3ccccc23)cc1S(=O)(=O)NCC1CCCO1 (stereo not drawn)	-0.77
COc1cccc(Cn2c(=O)n(-c3cccc(Cl)c3)c(=O)c3c4c(sc32)CN(C(C)=O)CC4)c1	-0.11
CCS(=O)(=O)c1ncc(Cl)c(C(=O)Nc2ccc(S(=O)(=O)N(C)c3ccccc3)cc2)n1	-0.24
Cc1ccc(Cl)cc1N1CCN(C(=O)CN2C(=O)COc3ccc(S(=O)(=O)N4CCOCC4)cc32)CC1	-1.2
COc1c(C)cc(S(=O)(=O)NC2COCC2Cc2ccncc2)c(C)c1C (stereo not drawn)	-0.21
CCOC(=O)c1c(NC(=O)/C(C#N)=C/c2ccccc2)sc2c1CCC2	-0.67
NS(=O)(=O)c1cccc(NC(=O)NCCN2CCCC(CO)C2)c1 (stereo not drawn)	-1
Cc1cccc(N2CCN(C(=O)C3CCN(S(=O)(=O)c4c(C)noc4C)CC3)CC2C)c1 (stereo not drawn)	-2.1
Cc1ccc(-n2c(=O)c3sc4ccccc4c3n(CC(=O)NC3CCCC3)c2=O)cc1C	-1.8
Cc1cc2c(cc1C(=O)N1CCC3OCc4cnnn4C3C1)OCCO2 (stereo not drawn)	0.06
Cc1ccc(CNC(=O)c2cc(=O)c3cc(C)ccc3o2)cc1	-2
CNC(=O)C1CC(n2cc(CN(C)C(=O)Nc3cc(F)ccc3C)nn2)CN1 (stereo not drawn)	-0.41
CCCOC(=O)c1ccc(Nc2nc3ccccc3nc2-n2nc(C)cc2C)cc1	-0.96
COc1ccc(NC(=O)CN(c2ccccc2OC)S(C)(=O)=O)c(OC)c1	0.27
Cc1[nH]nc2c1CN(C(=O)C=Cc1nc3ccccc3s1)CC2	0.3
NC(=O)CCC1CCCN(c2nc(-c3ccccc3)nc3c2CCC3)C1 (stereo not drawn)	-0.82
Cc1ccc(C(=O)O)cc1Nc1nc2ccccc2n2nnnc12	0.04
Cc1[nH]c2c(C)ccc(C)c2c1CC(=O)N1CCCCC1CCO (stereo not drawn)	-1.9
COc1ccc(F)c(F)c1C(=O)N1CC(O)C(Cc2cc(C)[nH]n2)C1 (stereo not drawn)	-1.4
c1ccc(-c2noc(CCn3ccnc3-c3cnsc3)n2)nc1	0.47
CCOc1ccc2nc(N3CCCC(C(=O)NCc4ccccc4Cl)C3)sc2c1 (stereo not drawn)	0.43
COCCCNc1nc2c(S(=O)(=O)c3ccc(C)c(C)c3)nnn2c2ccc(Cl)cc12	0.55
Cc1nc2ccc(C(=O)NC(C)c3cn4ncsc4n3)cc2nc1C (stereo not drawn)	-0.22
Cc1cc(Br)ccc1NC(=O)CN1C(=O)c2cccnc2Sc2ccccc21	-0.44
Cc1nc2ncnn2c(C)c1CCC(=O)NCc1cccc(Cl)c1	-1.1
Cc1nc2c(-c3ccc(F)cc3)c(C)nn2c(C)c1CCC(=O)N1CCN(c2ccccc2)CC1	-0.68
c1cc(-c2nc3c(c(NCCC45CCCN4CCC5)n2)CCNC3)ccn1	-2.6
CC(=O)c1cc2c(cc1NC(=O)C1CCN(C(=O)C(C)C)CC1)OCCO2	-2.2
CCOC(=O)C1CCN(CC(=O)N2CCCc3c2c(=O)oc2ccc(OCc4ccccc4)cc32)CC1	0.12
CC(=O)Nc1ccc2nc3c(=O)[nH]c(=O)[nH]c3nc2c1	-2.9
O=C(c1ccn[nH]1)N1CCC(c2ccc3ccccc3c2)C(O)C1 (stereo not drawn)	0.31
COCCNc1nc2cc(C(=O)NCc3nnc4n3CCC4)ccc2n1C	-0.02
O=C(NC1CCCCC1)c1ccc(CSc2nc3ccncc3n2Cc2ccccc2)cc1	-7.7
O=C(NC1COC2(CCCC2)C1)c1csc(-c2cccs2)n1 (stereo not drawn)	0.71
CCCc1ccc(OC(C)C(=O)Nc2sc3c(c2C(=O)OC)CCCCC3)cc1 (stereo not drawn)	-0.35
CCOC(=O)Cc1c(C)nc2cc(-c3ccc(C(C)(C)C)cc3)nn2c1C	-2.1
COc1cccc(NC(=O)CCc2c(C)nc3c4cccnc4nn3c2C)c1	-1
CCc1nccc(CN2CCC3OCc4cnnn4C3C2)n1 (stereo not drawn)	-0.14
Cc1ccccc1CSc1ncc(Cl)c(C(=O)NCc2ccccc2)n1	0.86
CCN1CCCC(NC(=O)N(C)Cc2[nH]c3ccccc3c2C)C1 (stereo not drawn)	-0.72
COc1cc(NC(=O)Cn2nc(C(F)(F)F)c3c2CCC3)cc(OC)c1OC	-1.3
CCOc1ccc(NC(=O)C2CCCN(c3cnccn3)C2)cc1 (stereo not drawn)	-0.67
CCOc1ccc(-c2csc(-c3nc(-c4ccc(Br)s4)cs3)n2)cc1	-0.04
CCCCSCCCNC(=O)CN1C(=O)COc2ccc(S(=O)(=O)N3CCCC3)cc21	-1.8
CCc1csc(CN2C(=O)CC3C2CCN3C(=O)c2cccc(=O)[nH]2)n1 (stereo not drawn)	-1.6
CCOc1cccc(C2c3c(oc4ccc(F)cc4c3=O)C(=O)N2CCOC)c1 (stereo not drawn)	0.37
CC1CCCCN1Cc1c(O)ccc2c(=O)c(-c3ccc(Cl)cc3)c(C(F)(F)F)oc12 (stereo not drawn)	-0.83
COc1cc(OC)c(C2Nc3c(C)cccc3-c3cc(C)nn32)cc1OC (stereo not drawn)	0.77
O=C1NCCC1NC(=O)N1CCN(Cc2ccc(Cl)c(Cl)c2)CC1 (stereo not drawn)	0.32

Later entries.
SMILES	fixLJ activator
Cc1ccc(CNC(=O)c2ccc(Cn3c(=O)c4ccccc4n(CC(=O)Nc4c(C)cc(C)cc4C)c3=O)cc2)cc1	-0.52
Cc1cccc(N2CCN(S(=O)(=O)c3c(C)nc4scc(C)n4c3=O)CC2C)c1 (stereo not drawn)	-0.8
CCOc1ccc(CN(CCc2ccc3c(c2)OCO3)Cc2ccc(OC)c(Br)c2)cc1	1.9
COC(=O)c1ccc(NC(=O)CN(CCc2ccccc2)S(=O)(=O)c2ccc(OC)cc2)cc1	3
CCOc1ccc(NS(=O)(=O)c2ccc3[nH]cc(C(=O)NC4CCCC4)c(=O)c3c2)cc1	-5.7
CCn1ncnc1C(NC(=O)c1[nH]nc(N)c1-c1ccccc1)C1CC1 (stereo not drawn)	-0.76
CCCS(=O)(=O)c1nc(S(=O)(=O)c2ccc(C)cc2)c(NC(C)c2ccccc2)s1 (stereo not drawn)	2.3
Cc1cccc(C(C)C)c1NC(=O)C(NS(=O)(=O)c1cccc2nsnc12)c1ccccc1 (stereo not drawn)	-0.66
CCSc1ncc(Cl)c(C(=O)Nc2c(C(=O)c3ccccc3)oc3ccccc23)n1	-0.04
CCn1c(=O)cc(SCC(=O)NCc2cccc(Cl)c2)c2ccccc21	-0.58
COc1cccc(-c2cc(C(F)(F)F)n3nc(-c4ccc(C)cc4)cc3n2)c1	-0.98
CCCN1C(C(=O)c2ccccc2)=C(OC(=O)COc2ccc(C)cc2)c2ccccc2S1(=O)=O	-3
O=C(CCOc1ccccc1)NC1CC(c2cc(=O)[nH]c(N3CCCC3)n2)C1 (stereo not drawn)	1.6
Cc1ccc(-c2noc(CSc3nnc(Cc4ccccc4)n3-c3cccc(C)c3)n2)cc1	-0.66
CCN(CCCNC(=O)c1cc2cc3ccc(C)cc3nc2s1)c1ccccc1	1.4
COc1cccc(OCCn2c(-c3ccc(Br)cc3)nc3ccccc3c2=O)c1	-1.3
CCN(CC)C(=O)c1c(NC(=O)c2ccccc2F)sc2c1CCC(C(C)(C)C)C2 (stereo not drawn)	0.28
COc1cc(C(=O)NCCSc2c(C)[nH]c3ccccc23)cc(OC)c1OC	-0.45
O=C(O)c1ccc(C(=O)NCC2CCCN(Cc3ccco3)C2)s1 (stereo not drawn)	-1.1
CN(Cc1ccc2ccccc2n1)C(=O)c1ccc2[nH]c(=O)[nH]c2c1	-1.3

In another format: 2 of the compounds above.
| compound | fixLJ activator |
| --- | --- |
| CCN(CC)C(=O)c1c(NC(=O)c2ccccc2F)sc2c1CCC(C(C)(C)C)C2 (stereo not drawn) | 0.28 |
| COc1cc(C(=O)NCCSc2c(C)[nH]c3ccccc23)cc(OC)c1OC | -0.45 |

Bioassay records from PubChem BioAssay.
